# Rango dissoc inh = prevents RanGTP from dissociating the Rango-importin beta complex; Biochemical FRET Rango-importin beta, RanGTP-induced dissociation; 0.071% of 340,000 active; AID 540253; Potency, µM (titrated, usually from 46.1 µM), for inactives: at the highest dose activity change, negative = inhibition; active means falling FRET ratio curve, often poorly fitted, with flat reads before Ran was added; inconclusive means other falling curves, or compound fluorescence or quenching; inactive means flat or rising ratio curve;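 also: potency is read from the fitted curve at half-maximal effect; % of control where 0% means no effect; nearly all actives have a fitted effect of over 45% in size; -100% = wells without RanGTP and RCC1; the record marks most hits as doubtful in a second field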
#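 Two FRET readings bracket the reaction: one 5 min after compound meets Rango–importin beta, another 45 min after RanGTP-RCC1 (0.6 uM Ran, 0.2 uM RCC1, 2 mM GTP) is added. Only the second defines inhibition.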
# GLA inh pH 4.5 = inhibitors of human alpha-galactosidase A at pH 4.5; P06280; purified enzyme, 4-MU-alpha-Gal fluorescence, pH 4.5; activity change, negative = inhibition, % at 105 µM; 230,000 tested, under 10 active; AID 1467; inconclusive = small, poorly fitted or top-dose-only inhibition, or a rising curve; inactive = flat fitted curve, though single readings scatter; no compound was filed as active;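 also: 0% = full activity with enzyme and -100% = basal without enzyme; dose as in the result columns while the protocol names 77 µM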
# Target sequence (P06280 whole entry, looked up): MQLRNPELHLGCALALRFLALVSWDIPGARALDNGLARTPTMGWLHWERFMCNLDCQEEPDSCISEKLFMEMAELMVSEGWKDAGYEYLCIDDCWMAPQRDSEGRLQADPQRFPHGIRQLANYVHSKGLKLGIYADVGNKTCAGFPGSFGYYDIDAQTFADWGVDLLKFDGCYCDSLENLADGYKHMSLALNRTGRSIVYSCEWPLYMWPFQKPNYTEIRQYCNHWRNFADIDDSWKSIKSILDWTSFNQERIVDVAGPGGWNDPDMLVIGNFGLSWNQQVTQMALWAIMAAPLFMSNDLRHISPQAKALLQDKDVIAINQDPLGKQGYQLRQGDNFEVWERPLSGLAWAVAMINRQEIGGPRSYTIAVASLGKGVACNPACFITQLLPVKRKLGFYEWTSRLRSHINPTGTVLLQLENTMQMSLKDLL
# Rango complex inh = prevents formation of the Rango-importin beta complex; Q14974; Rango CFP/YFP FRET sensor + importin beta, 45 min; Potency, µM (top dose mostly 92.2 µM), for the others: at the highest dose inhibition of complex formation; 0.031% of 340,000 active; AID 540263; active = rising FRET ratio curve, often small or poorly fitted; inconclusive = mostly compound fluorescence or quenching in the first reads; inactive = flat curves in all reads;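 also: potency is read from the fitted curve at half-maximal effect; 0% = DMSO wells and 100% = buffer wells lacking importin beta; nearly all actives have a fitted effect of over 15% in size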
#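 FRET biosensor (snurportin 1 IBB flanked by EYFP and cerulean), 50 nM, with compound 5 min, then 0.125 microM importin beta in PBS, 1 mM DTT, 0.02% Tween-20, 0.1% BSA. CFP/YFP ratio read after 45 min at room temperature; pre-read flags interference.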
# miR-21 FLuc = miR-21 reporter, rising signal | Potency, µM (top dose mostly 38.3 µM), inactives show at the highest dose reporter change, positive = more light | 340,000 tested, under 10 active | AID 2288 | HeLa miR-21 FLuc reporter, luciferase, 48 h; active = well fitted rising curve with a large enough effect; inconclusive = small, poorly fitted or top-dose-only effect; inactive = no such curve, though single readings can be large or run the other way;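 also: % of control where 0% means no effect; miR-21 action dims this reporter so a rising signal means less miR-21 action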
#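 Luminescence from a firefly luciferase reporter carrying a miR-21 binding site downstream, stably expressed under a CMV promoter in HeLa cells that make miR-21 endogenously, reports miRNA modulation after 48 h compound exposure up to approximately 40uM final.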
# * hit, by the source's call; ? = inconclusive; nt = not tested or not shown.
no.	SMILES	miR-21 FLuc	Rango dissoc inh	GLA inh pH 4.5	Rango complex inh
1	CCOC(=O)CCCN1CC(O)=C(c2nc(-c3ccc(Cl)cc3)cs2)C1=N	-6.0%	-7.1%	-1.6	-2.7%
2	Cc1ccc2c(c1)C(=O)C(=O)N2c1ccc(C(F)(F)F)cc1	nt	17.1%	nt	-2.4%
3	CCN(c1cccc(C)c1)S(=O)(=O)c1ccc2c(c1)NC(=O)CS2	8.3%	-6.8%	nt	-1.0%
4	COc1ccc(NC(=O)c2cc(=O)[nH]c3ccccc23)cc1	-13.6%	-2.0%	nt	-4.1%
5	CC(=O)c1cccc(NC(=O)CCCOc2ccc(C)cc2)c1	-4.4%	-10.7%	-7.3	2.2%
6	N#CCCn1cc(C(CC(=O)c2ccc(Br)cc2)C(=O)O)c2ccccc21 (stereo not drawn)	-11.5%	-17.2%	-7.3	-6.1%
7	Cc1cc(O)c(C(=O)/C=C/c2ccc(Cl)cc2)c(=O)o1	-41.6%	?	nt	?
8	CC(C)N1CCc2c(sc(NC(=O)c3cc(-c4cccs4)nc4ccccc34)c2C(N)=O)C1	0.0%	?	-4.0	?
9	CC[C@]12c3[nH]c4cc(-c5ccco5)ccc4c3CCN1C(=O)[C@@H](CC(=O)NC/C=C(\C)CCC=C(C)C)C[C@@H]2C(=O)N1CCN(C(=O)C2CC2)CC1	nt	?	nt	?
10	Cc1cc(NC(C)C)n2c(nc3ccccc32)c1C#N	-2.3%	-15.6%	?	?
11	C=CCn1nnnc1-c1cccc(Cl)c1	8.7%	-6.3%	8.4	-1.2%
12	Cc1ccc(NC(=O)CCS(=O)(=O)c2ccccc2)cc1S(=O)(=O)N1CCOCC1	0.3%	-2.8%	2.7	7.1%
13	CCC(CO)Oc1cc(NCc2ccc(C(C)(C)C)cc2)c2ncn(C(C)C)c2c1 (stereo not drawn)	nt	-6.2%	nt	-0.4%
14	Cc1cc(C)n2c(SCc3nnc(-c4cccs4)o3)nnc2n1	0.2%	10.6%	-1.2	1.0%
15	Cc1ccc(/C(O)=C/C(=O)C(=O)NC23CC4CC(CC(C4)C2)C3)cc1	4.5%	-21.6%	-4.3	1.8%
16	N#CC1=C(N)Oc2ccc3ccccc3c2C1c1cccnc1 (stereo not drawn)	17.7%	18.8%	-1.1	-1.5%
17	COC(=O)c1sc(=S)sc1C(=O)OC	-6.0%	-14.5%	9.7	-0.8%
18	Cc1cc(NC(=O)Cc2ccccc2)nc2c1c(=O)oc1ccccc12	9.2%	-5.6%	-10.8	-0.2%
19	Cc1[nH]c2ccccc2c1CCNC(=O)c1ccc2c(c1[N+](=O)[O-])C(=O)c1ccccc1C2=O	13.7%	-9.0%	?	3.1%
20	CSCCC(CO)NC(=O)OCc1ccccc1 (stereo not drawn)	-4.9%	23.8%	-1.3	-2.5%
21	O=C1Nc2ccccc2C12OCCS2 (stereo not drawn)	-8.2%	nt	1.9	nt
22	Nc1nc(N)c2[nH]cnc2n1	nt	?	nt	-0.4%
23	Nc1ccnn1Cc1cccs1	0.7%	0.3%	-5.7	-0.3%
24	c1ccc2c(c1)oc1c(N3CCOCC3)ncnc12	-61.0%	4.0%	3.9	-1.5%
25	COc1ccc(N2CCN(C(=O)C(OC(C)=O)c3ccccc3)CC2)cc1 (stereo not drawn)	2.4%	-1.7%	-5.7	0.9%
26	Cc1ccc[n+](Cc2ccc([N+](=O)[O-])cc2)c1	0.8%	1.4%	-2.5	1.6%
27	CC(C)[C@H](NC(=O)NCCc1ccc(Cl)cc1)C(=O)O	0.0%	7.8%	-0.2	0.0%
28	CCc1cc2c(=O)c(-c3nc4ccccc4n3C)c(CCCC(=O)O)oc2cc1OC(=O)C(C)(C)C	0.0%	-23.4%	-15.2	?
29	COc1ccc(N2CCN(C(=O)c3oc4c(c3C)C(=O)CCC4)CC2)cc1	-2.3%	7.4%	nt	0.6%
30	O=C(Nc1ccc(NC(=O)c2cc([N+](=O)[O-])ccc2N2CCOCC2)cc1)c1cccs1	-3.5%	20.2%	0.8	0.0%
31	CC12CCC(=O)N1C(C(=O)Nc1ccccc1N1CCOCC1)CS2 (stereo not drawn)	-3.1%	18.0%	nt	-1.8%
32	Cc1oc(-c2ccccc2F)nc1CS(=O)(=O)CC(=O)NCc1ccccc1Cl	-6.0%	-12.9%	nt	4.8%
33	O=C(NC(=O)c1ccc(C(F)(F)F)cc1)Nc1ccc(-c2cnco2)cc1	-9.9%	-19.8%	0.2	-0.2%
34	Cn1nc(-c2ccccc2)c2ncc(C(F)(F)F)cc21	-1.6%	-7.6%	6.4	6.7%
35	COc1ccc(S(=O)(=O)N2CCC(C(=O)NCCC(=O)Nc3nccs3)CC2)cc1	2.0%	-3.7%	nt	2.3%
36	COc1nc(NC23CC4CC(CC(C4)C2)C3)nc(OC)n1	-33.7%	8.9%	-1.3	-4.6%
37	CCOC(=O)/C(C#N)=C\c1ccc(N2CCN(C)CC2)cc1	-13.5%	?	3.6	?
38	Cc1cc2cc(C(=O)N3CCc4c([nH]c5ccccc45)C3c3ccccn3)ccc2o1 (stereo not drawn)	-1.1%	-5.7%	?	-2.9%
39	Cc1ccc(C(=O)NNC(=O)C2CSC3(C)CCC(=O)N23)cc1 (stereo not drawn)	nt	-6.4%	nt	-3.3%
40	CN1CCCN(C(=O)C2CCCCC2)CC1	?	-0.8%	8.4	-4.3%
41	Cc1ccc(S(=O)(=O)CCC(=O)OCC(=O)N2CC(=O)Nc3ccccc32)cc1	-2.7%	14.8%	-1.7	-4.6%
42	C=CCNc1nc2c(c(=O)[nH]c(=O)n2C)n1Cc1cccc(C)c1	0.6%	3.7%	-3.2	-6.1%
43	CCOc1cccc(NC(=O)C2CC(=O)N(C)C2)c1 (stereo not drawn)	-0.3%	15.8%	-4.1	-0.5%
44	CCOc1ccc(OCC)c(NC(=O)C2CCCN(c3nc(C)cc(C)n3)C2)c1 (stereo not drawn)	0.7%	15.2%	4.4	-0.5%
45	COc1ccc(F)cc1S(=O)(=O)n1nnc2ccccc21	10.8%	8.2%	5.3	0.7%
46	O=C(CC12CC3CC(CC(Br)(C3)C1)C2)NC1=NCCS1	1.9%	20.2%	1.0	?
47	O=C(NCc1ccc2c(c1)OCO2)c1ccccn1	-37.0%	-4.1%	-4.4	-0.4%
48	Cc1ccc(-c2ccc(S(=O)(=O)Nc3cccnc3)cc2)cc1	7.9%	2.6%	nt	0.9%
49	O=C(CSc1nnnn1C1CCCC1)N1CCOCC1	-23.5%	-9.0%	10.7	-0.8%
50	CCOc1ccc(Nc2nc(Cc3nnc(SCC(=O)c4ccc(C)cc4)o3)cs2)cc1	-2.2%	-2.9%	-2.5	0.4%
51	COc1cccc(-c2nnc(NC(=O)c3cccc(F)c3)o2)c1	-9.2%	-11.0%	6.0	0.5%
52	C[C@@H]1C=C(C(=O)NCc2nc3ccccc3[nH]2)O[C@H](OCCCCO)C1	nt	2.3%	nt	0.8%
53	CCO[C@@H]1OC(C(=O)N2CCN(Cc3ccc4c(c3)OCO4)CC2)=C[C@H](c2ccc(Br)cc2)[C@H]1CCCO	19.2%	-6.5%	2.7	0.9%
54	CC(C)c1c(O)cc(-c2ccncc2)n(-c2ccc(Cl)cc2)c1=O	16.3%	8.7%	13.4	-1.6%
55	Cc1cc(C)nc(Nc2n[nH]c(COc3ccc4ccccc4c3)n2)n1	-1.8%	-3.4%	4.8	6.7%
56	Nc1nonc1C(=O)NCCNc1ccc([N+](=O)[O-])cc1	4.0%	4.3%	-13.3	0.4%
57	CC(C(=O)Nc1ccccc1Oc1ccccc1)c1ccccc1 (stereo not drawn)	17.9%	7.1%	5.9	0.0%
58	Cc1ccc(OCCn2c(=S)[nH]c3c(N)ncnc32)cc1	-8.5%	9.7%	-5.8	1.1%
59	O=C(COC(=O)Cc1n[nH]c(=O)c2ccccc12)Nc1c(Br)cc([N+](=O)[O-])cc1Br	nt	-11.1%	nt	1.4%
60	c1ccc(C[C@H]2CN=C(Nc3ccccc3)N2CCCC2CCCC2)cc1	17.6%	16.1%	nt	0.0%

# (next part)
no.	SMILES	miR-21 FLuc	Rango dissoc inh	GLA inh pH 4.5	Rango complex inh
61	CCOc1ccc(CNC(=O)c2nnc(CS(=O)(=O)c3ccccc3)o2)cc1OC	-2.8%	6.5%	nt	-0.7%
62	O=C(O)c1cccc(N2C(=O)c3cccc4c(Cl)ccc(c34)C2=O)c1	-0.6%	?	-5.3	-0.1%
63	COc1ccc(NC(=O)C/C(C)=N/NC(=O)c2cccs2)c([N+](=O)[O-])c1	-59.4%	-0.9%	nt	4.0%
64	CCNC(=S)Nc1ccccc1-c1ccccc1	-1.3%	0.8%	-2.8	-0.6%
65	CCC(C)Nc1nc2c(c(=O)n(C)c(=O)n2C)n1C (stereo not drawn)	-4.5%	-2.8%	-9.4	0.4%
66	Cn1ccnc1C(O)(c1ccccc1)c1ccccc1	1.3%	-12.2%	-6.2	2.3%
67	CC(C)c1csc(CN2CCCC(CCC(=O)NCc3ccccc3F)C2)n1 (stereo not drawn)	24.2%	13.0%	-17.9	0.9%
68	O=c1c(-c2ccco2)[n+]([O-])c2ccccc2n1OCc1ccccc1	-3.1%	?	-5.6	?
69	O=C(COC(=O)c1cc(-c2cccnc2)nc2ccccc12)Nc1ccc(F)cc1F	0.9%	-15.1%	6.3	-4.6%
70	COc1ccc(-c2cc(C(=O)N3CCN(c4ncccn4)CC3)c3ccccc3n2)cc1	nt	20.6%	nt	-0.4%
71	CCCCCCCCNc1ncnc2[nH]ncc12	nt	3.8%	nt	-1.7%
72	Cc1cccc(Oc2c(C=O)c3ccccc3n2C)c1	-1.6%	3.5%	1.6	0.2%
73	CCCCNC(=O)C1CCCN(S(=O)(=O)c2ccc(-n3cnnn3)cc2)C1 (stereo not drawn)	-3.9%	-1.6%	-2.3	1.4%
74	CCOc1cc(-c2cc(-c3ccc(C)cc3)nc(N)c2C#N)ccc1O	24.3%	-23.4%	-7.1	0.1%
75	COc1cccc(NC(=O)CSc2nn3c(=O)c(C)nnc3s2)c1	1.0%	0.0%	nt	-1.2%
76	CN(c1ccc(C(=O)O)cc1)S(=O)(=O)c1ccc(Cl)cc1	-2.7%	2.8%	-12.6	2.2%
77	Cc1nn(Cc2ccccc2)c(=O)n1N(C)c1ncc(C(F)(F)F)cc1Cl	-7.0%	-3.9%	-2.0	5.4%
78	CCCCOC(=O)Nc1cccc(C(=O)OCC)c1	-38.2%	-9.8%	-0.9	1.2%
79	COc1ccc(OC)c(NC(=O)C2CCCCC2C(=O)O)c1 (stereo not drawn)	0.9%	?	-6.6	-1.9%
80	CC(NC(=O)c1cc2c(s1)CCCC2)C(C)(C)C (stereo not drawn)	-19.8%	5.5%	-1.4	0.5%

# Reformatted: entries from further up
# The line under a structure holds: miR-21 FLuc	Rango dissoc inh	GLA inh pH 4.5	Rango complex inh
74. CCOc1cc(-c2cc(-c3ccc(C)cc3)nc(N)c2C#N)ccc1O
→ 24.3%	-23.4%	-7.1	0.1%
75. COc1cccc(NC(=O)CSc2nn3c(=O)c(C)nnc3s2)c1
→ 1.0%	0.0%	nt	-1.2%
76. CN(c1ccc(C(=O)O)cc1)S(=O)(=O)c1ccc(Cl)cc1
→ -2.7%	2.8%	-12.6	2.2%
77. Cc1nn(Cc2ccccc2)c(=O)n1N(C)c1ncc(C(F)(F)F)cc1Cl
→ -7.0%	-3.9%	-2.0	5.4%

# (listing goes on)
no.	SMILES	miR-21 FLuc	Rango dissoc inh	GLA inh pH 4.5	Rango complex inh
81	O=C(Cc1ccccc1[N+](=O)[O-])OCC(=O)N1CCN(c2ccccc2)CC1	nt	10.1%	nt	-0.6%
82	Cc1ccc(NS(=O)(=O)c2ccc(OCC(=O)NCc3ccco3)cc2)cc1	-4.8%	-2.6%	2.9	2.0%
83	CCOC(=O)C1CCCN(C(=O)c2cc3cc(Br)ccc3oc2=O)C1 (stereo not drawn)	-1.4%	0.4%	7.3	-5.0%
84	CC1CN2C(c3ccc(Cl)cc3)=CSC2=N1 (stereo not drawn)	-0.8%	0.0%	nt	-1.4%
85	Cc1cc(C)nc(Nc2ncc(O)n2-c2ccccc2)n1	-1.3%	5.0%	1.3	-3.7%

# Assay outcomes: PubChem, National Center for Advancing Translational Sciences (NCATS)

# Some of the compounds tested; count on the stated rates, not on these rows.
